Compound activity from PubChem BioAssay.
rRNA inh HTS: inhibitors of bacterial rRNA selective over humanized ribosomes; E. coli WT GFP vs humanized-ribosome RFP mutants, fluorescence, 24 h; stronger effect = lower value; DMSO median 0, no signal -100; GFP signal change (wild-type ribosome), % (concentration not given with the values); 350,000 tested, 1.6% active; AID 720706;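 active = significant combined selectivity score with lowered wild-type GFP, culture density cut under 30%, mutant RFP and density less affected; inactive = any of these conditions unmet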; also: one replicate is shown; some compounds called inactive have numbers as strong as hits
Beta apoptosis: beta cell apoptosis inhibition; INS-1E cytokine-induced death, ATP luminescence, 48 h; percent of positive-control rescue, neutral wells zero; 300,000 tested, 0.8% active; protection from apoptosis, % (no concentration beside the values); AID 435005;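 active = all replicates at 75% or more, or half of them and the mean; inconclusive = half reach 75% but not the mean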;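 also: 0% = cytokine-treated negative control wells and 100% = positive control rescue; higher means more ATP so stronger rescue from cytokine killing; wells of about 40 µL received 100 nL stock; the first replicate is given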
RanGTP-Impb inh: inhibitors of RanGTP-importin-beta interaction, primary screen, biochemical, FRET, CFP-Ran, YFP-importin-beta, homogeneous; cell-free CFP-Ran/YFP-importin-beta FRET ratio; inhibition, % (no concentration beside the values); 300,000 tested, 1.1% active;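 active = most replicates above 15%; inconclusive = exactly half above 15%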;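 also: 0% = DMSO wells and 100% = Ran loaded with GDP instead of GTP; wells of about 40 µL received 100 nL stock; the first replicate is given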
MLL AF4-AF9 inh: MLL-AF4/AF9 protein interaction inhibition. AlphaScreen, biotin-AF4 peptide binding to FLAG-AF9. inhibition, % at 10 µM. 350,000 tested, 0.47% active;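 active = every replicate reaching a set inhibition limit, whatever the replicate mean, cut at about 25% in these data; inconclusive = mean inhibition reaches that limit but some replicates miss it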;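 also: 0% = plate neutral control median and 100% = total signal loss; the record names both 10 and 1 µM as test concentration; the first replicate is given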
Target sequence (P42568 whole entry, looked up): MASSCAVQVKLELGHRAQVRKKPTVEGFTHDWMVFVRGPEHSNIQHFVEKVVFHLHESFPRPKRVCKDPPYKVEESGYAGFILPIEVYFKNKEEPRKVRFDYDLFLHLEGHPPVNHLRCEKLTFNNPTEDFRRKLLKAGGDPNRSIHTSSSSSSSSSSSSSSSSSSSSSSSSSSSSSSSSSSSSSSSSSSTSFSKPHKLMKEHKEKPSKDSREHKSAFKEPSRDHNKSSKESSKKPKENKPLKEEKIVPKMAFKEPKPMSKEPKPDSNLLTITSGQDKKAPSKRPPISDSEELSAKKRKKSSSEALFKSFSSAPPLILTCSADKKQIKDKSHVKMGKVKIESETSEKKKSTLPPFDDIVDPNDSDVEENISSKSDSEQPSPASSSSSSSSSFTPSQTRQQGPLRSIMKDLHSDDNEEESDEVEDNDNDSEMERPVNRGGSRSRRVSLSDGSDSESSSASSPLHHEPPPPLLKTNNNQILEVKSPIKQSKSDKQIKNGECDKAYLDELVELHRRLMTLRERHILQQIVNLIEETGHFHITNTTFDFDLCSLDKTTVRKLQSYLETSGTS
T cruzi repl: blocks replication of Trypanosoma cruzi. T. cruzi beta-gal in NIH3T3, luminescence, 90 h. inhibition, % (no concentration beside the values). AID 1885. 300,000 tested, 1.4% active;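 active = mean inhibition across valid replicates above about 55%, limit read from the data; inconclusive = mean below that limit but half or more replicates reach it; inactive = mean below it, under half of replicates reach it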;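 also: signal also drops with host cell toxicity which is not excluded here; 0% = plate median of DMSO wells and 100% = zero luminescence signal; higher percent means less beta-gal luminescence so fewer parasites; stock transfer was 50 nL into about 50 µL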
Calb FLC: C. albicans growth modulation with fluconazole | 300,000 tested, 0.57% active | C. albicans CaCi-2 (fluconazole-resistant clinical isolate) + fluconazole, Alamar Blue growth, 48 h | growth inhibition, % (test concentration not listed) | AID 1979;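 active = most replicates above 75%; inconclusive = exactly half above 75%; inactive = most below 75%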;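 also: all wells also contain fluconazole at 8 µg/ml as a sub-toxic cotreatment; 0% = median of DMSO wells and 100% = median of geldanamycin control wells; wells of about 8 µL received 7.5 nL stock; the first replicate is given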
Bfl-1 A1 inh: inhibitors of the anti-apoptotic protein A1, read as caspase activation | MEF A1-2A-BIM cells, Caspase-Glo 3/7 luminescence, 3 h; percent of clofoctol response, vehicle zero | caspase activation, % (test concentration not listed) | 330,000 tested, 0.066% active | AID 2462;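 active = over half of replicate activation scores above 10%, or exactly half above 10 with the replicate mean above 10; inconclusive = replicate mean below 10 yet half the replicates above 10; inactive = over half of replicates below 10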;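 also: wells of about 30 µL received 50 nL stock; many hits fall short of the cut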
Vif TR-FRET: inhibitors of Vif binding to APOBEC3G peptide, primary screen, biochemical, TR-FRET, GST-Vif 1-94, biotin-A3G peptide, dose response retest (AID 1117319) | inhibition, %; hits with a dose series show IC50 in µM | TR-FRET GST-Vif / biotin-A3G peptide binding; higher % means a stronger effect; test concentration not given here; strong numbers were not always called active | 260,000 tested, 0.57% active;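 active = above the screen mean plus three standard deviations and confirmed in dose response; inconclusive = results disagree or hit not tested in dose response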;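 also: Vif residues 1-94 fused to GST binding biotinylated APOBEC3G peptide 110-148; 0% = full assay without inhibitor and 100% = GST in place of GST-Vif; retest series ran down from 100 µM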
rRNA inh HTS OD600: further read-out of rRNA inh HTS, marked with its call; OD600 change, %; measured here: OD600 growth;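 optical density of the mix in the first replicate; 0 = DMSO median and -100 = no signal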
rRNA inh HTS RFP: also measured in rRNA inh HTS; calls as there; RFP signal change, %; measured here: RFP humanized mutant strains;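 first replicate; 0 = DMSO median and -100 = no signal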
The depositor's hits bear a star; u = inconclusive; x = no result given. An excerpt. The share of hits here may be higher or lower than overall.

SMILES,RanGTP-Impb inh,rRNA inh HTS,Bfl-1 A1 inh,MLL AF4-AF9 inh,Calb FLC,Beta apoptosis,T cruzi repl,rRNA inh HTS OD600,Vif TR-FRET,rRNA inh HTS RFP
O=C(NCC1CCCO1)c1csc(Nc2cccc3ccccc23)n1 (stereo unspecified),-3.7,-48,1.1,-12,-11,8,-6,-68,8%,-11
CCC(=O)Nc1cccc(C2=NOC3(C2)C[C@@H](C(N)=O)N(C(=O)C2(C)CC2)C3)c1 (stereo partly specified),0.0,3,1.1,-3.6,-1,0,-5,6,x,-1.8
Cc1[nH]c(=O)c(Cc2ccccc2)c(O)c1C#N,1.8,21,-0.7,-1.3,-1,3,-8,19,x,2.6
CCOc1ccc(NC(=O)C2CCC(C)(C(=O)O)C2(C)C)cc1 (stereo unspecified),1.8,x,-0.2,x,-5,-1,4,x,19%,x
COc1ccccc1NS(=O)(=O)c1cc(C(=O)NCC(c2ccc(F)cc2)N2CCOCC2)ccc1C (stereo unspecified),5.5,-8,-0.1,0.7,2,7,11,-8,9%,3.4
Cc1ccnc(NC(=O)CCC(=O)N(CC(=O)NCCc2ccccc2)Cc2cccs2)c1,-1.4,6,-0.4,-0.7,4,-15,8,2,-6%,1.6
CCCC1CC(=O)OC1(C)C(=O)CSc1n[nH]c(-c2ccccc2)n1 (stereo unspecified),-1.4,12,0.4,-24,-4,-4,1,0,24%,5.1
O=C(O)Cc1cc2c(s1)CCCCC2,4.0,x,0.0,x,1,-3,-1,x,2%,x
Cc1cc(C(=O)O/N=C(\N)c2ccncc2)ccc1[N+](=O)[O-],0.6,-7,-2.2,-1.6,-3,0,6,-4,4%,-3.5
COc1ccccc1NC(=O)Cc1nnc(SCC(=O)Nc2ccccc2F)n1C,-1.0,7,-0.5,1.0,2,-2,-7,8,x,-1.9
O=C(CN1CCN(c2ccccn2)CC1)Nc1nc2ccccc2s1,-2.0,-16,0.0,6.2,-6,1,5,-17,x,-2.8
O=S1(=O)C=C(SCc2ccc(F)cc2)Nc2ccccc21,0.5,11,-0.2,-2.3,-13,5,-8,5,-3%,2.0
Cn1cccc1Cc1nnc(SCC(=O)Nc2cccc(F)c2)n1-c1ccc(F)cc1,-3.2,-10,-0.1,-3.1,-2,-4,-19,-8,26%,1.6
N#Cc1c(NC(=O)CSc2ncn[nH]2)sc2c1CCCC2,0.4,x,-1.7,x,40,-3,-15,x,u,x
O=C(COc1ccc(Cl)cc1Cl)N(C1CCCCC1)C1CCS(=O)(=O)C1 (stereo unspecified),x,4,0.5,-1.9,x,-4,x,-42,17%,-2.2
COc1ccc(-c2nc(C#N)c(NCc3ccc(C)cc3)o2)cc1OC,2.5,x,-0.3,x,x,6,23,x,2%,x
O=C(CSc1nnc(-c2ccccc2O)n1Cc1ccccc1)NNC(=O)c1ccccc1O,-0.3,x,0.1,x,u,-2,1,x,x,x
COCCCNC(=O)C1CCN(c2ncccn2)CC1,x,2,-1.4,x,1,-4,-5,11,-5%,-1.9
Clc1ccc2nc3ccccn3c2c1,-3.1,x,-0.2,x,13,x,2,x,98µM*,x
Cc1nn(CC(=O)Nc2cc(S(=O)(=O)N(C)C)ccc2Cl)c(C)c1[N+](=O)[O-],1.5,x,-0.3,x,9,4,6,x,4%,x
CN(Cc1ccccc1)S(=O)(=O)c1ccc(NC(=O)c2ccccc2C(=O)O)cc1,-7.4,-9,-0.6,-1.9,-13,-2,6,-2,x,4.4
O=C(Cn1cnc2c(nnn2-c2ccccc2)c1=O)N1CCCc2ccccc21,-1.8,-2,0.9,0.1,1,-3,-1,-4,21%,0.5
O=C(NCCS(=O)(=O)NCCc1ccccc1)c1ccccc1,5.8,-3,0.0,-22,5,-5,11,0,x,-0.8
O=c1[nH]c2ccc(Cl)cc2c(-c2ccccc2)c1N1CCN(CCO)CC1,6.4,x,0.6,x,-3,12,16,x,u,x
Nc1c(Cl)cc(C2=NCCn3c2c2ccccc2[n+]3[O-])cc1Cl,3.4,-23,0.3,3.2,35,-11,-2,-46,x,-6.9
O=C(C/C=N/OCc1ccccc1F)c1cnc(-c2ccc(Cl)cc2)s1,0.2,x,-0.1,x,-6,2,3,x,4%,x
CC(Oc1ccc2c(-c3ccccc3)cc(=O)oc2c1)C(=O)NCC(O)c1ccccc1 (stereo unspecified),u,-24,0.2,-0.1,8,-2,11,-35,x,-6.6
CNC(=S)NCCc1cc2c(OC)ccc(OC)c2[nH]c1=O,-4.9,4,-2.8,-0.9,24,-10,-14,5,-2%,-1.3
CC(=O)c1c(C)[nH]c(C(=O)N2CC(C)CC(C)C2)c1C (stereo unspecified),-4.9,2,0.6,2.4,-4,-4,-12,7,-7%,0.3
CCCCCCc1c(C)[nH]c2nc3ccccc3n2c1=O,-3.2,10,0.9,-4.9,-3,6,-4,13,x,0.7
Cc1ccc(C)n1-c1sc2c(c1C#N)CCCC2,-3.2,x,-0.1,x,-6,-8,-6,x,15%,x
CCC(Sc1ncnc2c1c(-c1ccccc1)cn2-c1ccc(OC)cc1)C(=O)OC (stereo unspecified),u,9,0.4,-9.9,0,3,39,11,x,2.7
CCOc1ccccc1NC(=O)c1cc(CC(C)C)oc1C,-1.8,x,-0.3,x,-5,-4,28,x,27%,x
COc1ccc([C@H]2CC(=O)C=C(c3cc(C)ccc3OC)C2)cc1,x,-20,0.4,1.5,x,5,x,-24,x,-13
COC(=O)c1cccc(COC(=O)c2ccccc2NC(=O)c2ccco2)c1,3.6,x,1.3,x,u,1,8,x,-5%,x
COc1ccc(NC(=O)C2CCN(C(=O)c3cccs3)CC2)c(OC)c1,-0.1,x,0.5,x,-1,-10,-7,x,2%,x
CC(O)[C@H]1CNC(=O)C(=O)N1CCC12CC3CC(CC(C3)C1)C2 (stereo partly specified),-3.7,-10,0.0,4.3,-10,-4,-6,-17,4%,0.8
O=C(O)c1cccc(CSc2nnc(-c3ccco3)o2)c1,u,-7,-2.0,x,-2,-2,-30,-1,0%,1.0
Cc1nnc(NC(=O)c2sc3ccccc3c2Cl)s1,2.2,x,-2.3,x,68,-1,10,x,-15%,x
CCCCOc1ccc(N(CC(=O)NCCOC)C(=O)CCC(=O)Nc2ccccn2)cc1,0.1,18,-0.6,2.7,1,-1,-8,16,x,1.9
O=C(Cn1ncc2c3ccccc3n(Cc3ccccc3)c2c1=O)NCCCN1CCCC1=O,3.8,1,0.5,2.3,-19,0,9,-2,-7%,-0.1
COc1ccccc1C(=O)NCC(=O)N/N=C/c1cccc(Cl)c1,-2.3,17,u,-1.2,20,-1,18,19,6%,2.3
Cc1cc(C(=O)COC(=O)/C=C/c2cccc(F)c2)c(C)n1C,-0.4,7,0.2,-0.1,4,-5,-7,0,26%,0.9
CCN(CC)C(C(=O)NC1CCCCC1)c1ccc(C)cc1 (stereo unspecified),19,9,-0.2,0.0,-5,-2,-12,-5,-6%,-9.3
C/C(=N\OC(=O)c1ccc(F)cc1)c1sc(-c2ccccc2)nc1C,-2.2,x,-6.6,x,8,x,-2,x,72%,x
O=S(=O)(c1ccc(=S)[nH]c1)N1CCCC1,x,18,0.3,0.3,x,-34,x,14,8%,5.2
COC(=O)c1ccc(Nc2nc(C)cc(C)n2)cc1,-1.7,x,-1.3,x,-13,2,9,x,25%,x
Cc1cccc(-c2nnc3sc(-c4ccccc4C)nn23)c1,0.7,x,-0.5,x,10,19,40,x,20%,x
CC1Nc2nc(N(C)C)[nH]c(=O)c2NC1C (stereo unspecified),x,2,0.3,-2.6,x,2,x,-1,x,4.6
O=c1ccc2cc(S(=O)(=O)N3CCN(c4ccccc4)CC3)ccc2o1,3.5,x,0.3,x,5,-2,1,x,3%,x

Continuation:
SMILES,RanGTP-Impb inh,rRNA inh HTS,Bfl-1 A1 inh,MLL AF4-AF9 inh,Calb FLC,Beta apoptosis,T cruzi repl,rRNA inh HTS OD600,Vif TR-FRET,rRNA inh HTS RFP
O=c1[nH]c(=O)n(-c2cc(Br)c(O)c(Br)c2)cc1Br,2.4,-21,-0.5,-6.0,2,-5,-15,-18,-1%,-1.7
Cc1cccc(SCc2noc(C(=O)NC(C)C)c2C(=O)O)c1,2.2,-11,0.7,-8.4,0,-1,-8,-7,-5%,-4.5
COc1ccc2nc(N3CCCC(C(=O)NCCCN4C(C)CCCC4C)C3)sc2c1 (stereo unspecified),-3.0,4,-0.5,1.0,0,-1,16,7,x,-1.2
Cc1ccc(C(=O)COC(=O)CSc2cccc3cccnc23)c(C)c1,0.5,x,2.5,x,x,-5,-4,x,-1%,x
O=C(COC(=O)c1ccc(F)cc1F)Nc1ccc(Cl)cn1,x,x,-0.2,-2.9,x,-1,x,x,-9%,x
Cc1ccc(C(=O)NNC2=Nc3cccc4cccc2c34)cc1,5.3,x,0.1,x,24,38,15,x,x,x
CSCCC(N=C1NS(=O)(=O)c2ccccc21)C(=O)N1CCCC(C(N)=O)C1 (stereo unspecified),x,11,0.7,-2.9,-5,-2,-1,16,x,-1.7
COC(=O)Nc1c(C)n(C)n(-c2ccccc2)c1=O,-0.1,x,0.6,x,u,-1,-10,x,23%,x
O=C(CNC(=O)C(c1ccccc1)c1ccccc1)N/N=C\c1ccc2c(c1)OCO2,-2.0,x,-0.6,x,1,-2,1,x,x,x
CCc1ccc(NC(=O)C(C)OC(=O)c2cc(=O)[nH]c3ccc(S(=O)(=O)Nc4ccc(F)cc4)cc23)cc1 (stereo unspecified),1.7,x,0.5,-1.1,8,-19,-6,x,-3%,x
CN1CCN(C(=O)c2ccc(-n3cccc3)cc2)CC1,-1.1,x,0.6,x,9,-6,-4,x,-3%,x
COc1cc(NC(=O)c2cc(-c3ccccc3Cl)on2)cc(OC)c1OC,u,-12,0.7,-5.1,13,39,1,-25,-4%,-0.1
CN(C)c1nc(N(C)C)nc(N(C)C)n1,-1.3,x,0.7,-5.1,-10,-10,1,x,u,x
CC/C(=N\OC(=O)c1ccc(OC(C)C)cc1)c1ccc(C)cc1,10.0,x,1.5,x,1,-6,-2,x,4%,x
Cc1ccc(OCCCC(=O)NC2CCCCC2)cc1,-2.7,4,1.4,-0.6,-10,-3,-6,8,0%,-2.3
COc1ccc(CNC(=O)COC(=O)c2ccc(S(=O)(=O)N3CCOCC3)cc2)cc1,x,0,0.3,0.1,x,-5,x,19,-5%,-1.7
N/C(=N\c1nc2ccccc2o1)NC(=O)c1ccccc1F,21,x,-3.0,x,-1,6,-4,x,9%,x
Cc1onc(-c2ccccc2Cl)c1C(N)=O,0.4,x,-0.4,x,12,-3,-24,x,2%,x
Cc1cc(NC(=O)c2cc(-c3ccc(Br)cc3)on2)no1,1.0,1,1.0,-1.1,5,-6,-4,6,-30%,0.9
COCCNC(=O)Nc1ccc2nc(C)sc2c1,u,x,1.8,x,-5,-4,-7,x,3%,x
